# High-throughput results: PubChem BioAssay, several laboratories
# Arbovirus anti: antivirals against arbovirus infection, primary screen, cell-based, full library, 10K replicate subset; AID 1251, 2008; arbovirus infection cell-based antiviral screen; 0.37% of 200,000 active; inhibition, % at 10 µM;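 active = inhibition from about 30%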;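 also: bluetongue infection of BSR cells; cell survival read as ATP light after 72 h; 0% = infected wells without compound and 100% = uninfected wells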
# YopH inh: YopH tyrosine phosphatase inhibitors, primary screen, biochemical, fluorescence Ex485/Em525 | inhibition, %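 (about 10 µM by stock and volumes)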 | AID 898, 2007 | 0.16% of 140,000 active | YopH tyrosine phosphatase [Yersinia enterocolitica];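 active = inhibition of 50% or more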;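 also: controls were vehicle for no effect and minimum signal wells for full effect; inactives centre near -20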
# RecA intein inh: Mtb RecA intein splicing inhibitors, primary screen, biochemical, fluorescence, HTS. AID 2221, 2009. Protein RecA (Mycobacterium tuberculosis (strain ATCC 25618 / H37Rv)), P9WHJ3. cell-free RecA intein splicing. 0.75% of 290,000 active. inhibition, %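 (about 9 µM by stock and volumes)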; in the data active = inhibition above about 30%; inconclusive = no clear call, values can overlap the other calls;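 also: 0% = vehicle wells and 100% = reference inhibitor control wells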
# Target sequence (P9WHJ3 whole entry, looked up): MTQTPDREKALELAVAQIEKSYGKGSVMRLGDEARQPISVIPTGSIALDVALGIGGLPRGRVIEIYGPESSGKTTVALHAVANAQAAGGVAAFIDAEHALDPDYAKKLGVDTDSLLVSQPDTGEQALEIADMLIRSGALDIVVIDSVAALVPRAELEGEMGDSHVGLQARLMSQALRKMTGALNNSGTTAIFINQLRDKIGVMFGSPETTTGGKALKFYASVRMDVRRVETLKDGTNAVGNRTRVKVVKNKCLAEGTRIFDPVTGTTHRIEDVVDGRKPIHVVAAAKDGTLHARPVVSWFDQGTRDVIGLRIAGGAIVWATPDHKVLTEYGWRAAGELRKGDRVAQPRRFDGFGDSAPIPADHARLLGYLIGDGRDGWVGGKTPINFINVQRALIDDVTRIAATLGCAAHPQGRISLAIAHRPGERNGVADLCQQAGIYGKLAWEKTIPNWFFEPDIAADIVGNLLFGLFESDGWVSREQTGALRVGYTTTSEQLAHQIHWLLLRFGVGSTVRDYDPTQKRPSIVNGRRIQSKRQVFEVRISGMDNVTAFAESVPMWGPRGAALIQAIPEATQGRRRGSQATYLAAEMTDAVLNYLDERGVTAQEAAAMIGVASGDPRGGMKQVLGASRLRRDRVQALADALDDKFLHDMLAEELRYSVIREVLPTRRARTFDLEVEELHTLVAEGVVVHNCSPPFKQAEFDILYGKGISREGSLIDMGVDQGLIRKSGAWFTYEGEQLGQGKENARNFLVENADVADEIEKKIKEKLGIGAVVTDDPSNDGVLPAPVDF
# Mtb growth: M. tuberculosis H37Rv growth inhibitors, H37Rv strain (AID 1626); M. tuberculosis H37Rv growth inhibition; higher % means a stronger effect; one-dose inhibition, % at 10 µM; IC50 in µM for titrated hits; 0.95% of 220,000 active;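 active = confirmed in a dose series; inconclusive = inhibition above 80% but not taken into the dose series; inactive = below 80% or under 30% at every dose of the series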;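 also: bacteria incubated seven days before Alamar blue readout; 0% = bacteria only wells and 100% = bacteria with antibiotic wells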
# Mtb bLac sens: beta-lactam sensitization of Mtb H37Rv, H37Rv; M. tuberculosis H37Rv growth with meropenem, percent inhibition; hits of this screen are not shown here; 0.27% of 330,000 active; inhibition, % at 25 µM;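 active = about 74% or more and at least 40 points above the plate without the antibiotic, then above 30% in a dose series; inconclusive = first-round hits that could not be retested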;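 also: growth measured after seven days incubation then overnight dye step; 0% = bacteria only wells and 100% = bacteria with antibiotic; twin plates without the antibiotic show which effects depend on it; some results filed as inactive read as strong as hits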
# Arbovirus anti repeat: also measured in Arbovirus anti; calls as there; inhibition, %; measured here: 10K subset replicate screen; many hits read low in the repeat;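 first of two repeat runs on a subset; 0% = infected and 100% = uninfected wells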
# Starred values were filed as active, the others as inactive; ? = inconclusive; / = no result given. These rows are one share of the data; the hit share may differ from the screen's.
SMILES,Arbovirus anti,YopH inh,RecA intein inh,Mtb growth,Mtb bLac sens,others
O=C1COc2ccc(C(=O)COC(=O)CCSc3ccccc3)cc2N1,/,/,0.1,/,-3,
S=C(NNc1cccc(Cl)c1)NC1CCCCC1,-15,/,4.7,3%,-8,
O=C(O)CCCC(=O)Nc1ccccc1-n1ccnc1,-4,-40,0.0,0%,-11,
COc1ccc(CNC(=O)CSc2nnnn2-c2ccc(O)cc2)cc1,-5,-2,2.2,1%,3,Arbovirus anti repeat=-5
CCOC(=O)N1CCC(NC(=O)CS(=O)(=O)Cc2nc(-c3cccc(Cl)c3)oc2C)CC1,/,/,0.8,/,-6,
COc1ccc(S(=O)(=O)N[C@@H](CSCc2ccccc2)C(=O)O)cc1,/,/,-0.4,/,-6,
COc1ccccc1C(=O)NC(=S)Nc1ccc2[nH]c(=O)[nH]c2c1,/,/,-1.6,/,-1,
Cc1ccc(CNC(=O)c2ccccc2CCc2ccccc2)cc1,4,-28,-0.5,8%,99,
CC1CCC(NC(=O)CN2C(=O)NC(C)(C)C2=O)CC1 (stereo not given),/,/,-1.9,/,-7,
Cc1cc2[nH]c(=O)c(=O)[nH]c2cc1S(=O)(=O)N1CCN(c2ccccc2F)CC1,/,/,0.3,/,5,
O=P(CCN1CCCCC1)(c1ccccc1)c1ccccc1,14,-3,0.0,-8%,-3,
CC1CCN(c2ccc([N+](=O)[O-])c(SCCO)c2)CC1,/,/,3.0,-4%,-2,
COc1ccc(OC)c(NC(=O)Cn2c(-c3ccc(Cl)cc3)noc2=O)c1,6,1,-0.1,2%,13,
COc1ccc(Cc2nnc(NC(=O)c3ccccc3Cl)s2)cc1OC,/,/,0.7,/,-4,
CCN(C(=O)CN1C(=O)c2ccc([N+](=O)[O-])cc2C1=O)C1CCCCC1,/,/,-2.0,/,-11,
O=C(Nc1nc(-c2nc3ccccc3s2)cs1)C1COc2ccccc2O1 (stereo not given),16,-21,1.8,5%,-2,Arbovirus anti repeat=5
C/C(=N\NC(=O)C1CC1)c1ccc(C(C)(C)C)cc1,/,/,0.2,/,-4,
Cc1ccnc(Sc2ccc([N+](=O)[O-])cn2)n1,3,/,4.9,0%,2,
Cc1c(C(=O)N2CCCC2)c(S(=O)(=O)NCC(C)c2ccccc2)c(C)n1C (stereo not given),/,/,-1.8,/,6,
Cc1ccc2c(c1)NC(=O)c1cccc([N+](=O)[O-])c1CO2,-4,/,2.6,2%,-8,
Cc1nnc(SCC(=O)NN2C(=O)NC3(CCCCC3)C2=O)s1,-6,-26,-2.2,-7%,11,
CCn1c(Cc2ccccc2)nnc1SCC(=O)N1CCCCC1,7,-29,-0.5,-6%,-8,
C#CCSc1nnc(-c2ccc(OC)cc2)o1,-20,-12,-0.1,?,37,
Cc1nc(C(=O)Nc2ccc(F)cc2)nn1-c1ccc([N+](=O)[O-])cc1,3,-8,-0.7,-6%,4,
N#Cc1ccc(Oc2ccc(/C=N/O)cn2)cc1,-4,-21,0.1,10%,10,
Oc1ccccc1OCc1nc2ccccc2s1,0,-17,-1.8,-9%,-4,
CCOC(=O)/C(=N/Nc1ccccc1)Sc1nnc(CCc2ccccc2)n1-c1ccccc1,3,-16,4.7,7%,-3,
C=CCN1C(=O)/C(=C/c2ccc(OC)cc2)S/C1=N/c1nccs1,0,-33,1.4,-4%,12,
CC(=O)c1c(C)[nH]c(C(=O)Nc2ccccc2Cl)c1C,/,/,0.1,/,5,
COc1cc2nc(N(CCCN(C)C)C(=O)c3ccc(C(=O)c4ccccc4)cc3)sc2cc1OC,/,/,-1.6,/,-5,
CCCSc1nnc(CN2CCOCC2)n1C,6,-8,-2.6,-8%,-7,
CCOC(=O)c1cccc(NC(=S)N2CCN(c3ncc4c(=O)c(C(=O)O)cn(CC)c4n3)CC2)c1,14,/,6.9,4%,74,
COC(=O)c1ccc(NC(=O)C(=O)N2CCN(C(=S)Nc3cccc(OC)c3)CC2)cc1,1,-21,0.7,7%,-7,
COc1ccc(OC)c(S(=O)(=O)n2cnc3cc(C)c(C)cc32)c1,-4,-37,0.8,1%,14,
COc1ccc(C)cc1S(=O)(=O)N(CC(=O)Nc1cccc([N+](=O)[O-])c1)c1cc(C)cc(C)c1,-9,-14,-0.9,-2%,0,
CCS(=O)(=O)c1ccc(O)c(NC(=O)Nc2ccc(C(C)(C)C)cc2)c1,/,/,1.1,3%,23,
COc1ccc(NC(=O)C(c2ccc(C)cc2)N(C)C(=O)Cc2cccs2)cc1 (stereo not given),-8,-13,2.7,6%,11,
CCCCCCCCS(=O)c1sc2nc(C)cc(C)c2c1N (stereo not given),-5,-25,3.8,9%,85,
CC1(C)CC(NS(=O)(=O)c2cccc3ccccc23)CC(C)(C)N1,/,/,1.0,/,-3,
COc1ccc(C)cc1S(=O)(=O)N(CC(=O)N1CCCC1)c1ccc(C)cc1,/,/,0.6,/,3,
NC(=O)c1cccnc1Oc1ccc(Cl)cc1Cl,/,/,/,-13%,2,
CCc1ccc(NC(=O)CSc2nnc(Cc3cccn3C)n2-c2ccc(F)cc2)cc1,2,-29,3.5,-6%,8,Arbovirus anti repeat=-6
C=CCn1c(SCCC)nc(O)cc1=O,4,-46,2.5,-4%,3,
CCOC(=O)N1CCN(C(=O)Cn2c(C)cc3ccccc3c2=O)CC1,2,55*,-0.7,-2%,-1,
CCCOC(=O)c1ccc(NC(=O)c2ccccc2OC)cc1,-3,/,1.9,60%,1,
O=C1NC(=O)N(Cc2ccccc2Cl)C(=O)/C1=C/c1cccs1,-1,/,2.7,2%,2,
COc1ccnc(Oc2ccc(C)cc2C)c1C#N,-1,-26,-0.2,7%,7,
O=C(OCCN=C1NS(=O)(=O)c2ccccc21)c1cccc([N+](=O)[O-])c1,/,/,-0.5,/,9,
Cc1cc(-c2csc(NC(=O)c3cc4ccccc4o3)n2)c(C)n1C,-3,7,5.9,-9%,14,
CC1(C)Nc2ccccc2C(=O)N1c1ccccc1,/,/,-3.7,/,-7,
COc1ccc(-c2cc(C(=O)Nc3cc(OC)c(OC)c(OC)c3)no2)cc1,/,/,6.7,/,10,
O=C(c1ccccc1-c1nc(-c2ccc(Cl)cc2)no1)N1CCCC1,-6,-17,3.9,-1%,-4,
Cc1ccc(NC(=O)c2cccc3c2C(=O)N(C2CCCCC2)C3)cc1,-6,-27,2.6,4%,-3,
Nc1ccc(Nc2ccccc2N)cc1,-19,51*,58*,?,100,
O=C1CCCCC1C(Nc1ccc(Br)cc1)c1ccccc1 (stereo not given),-17,-3,16,/,-1,
O=C1CC(c2ccc(F)cc2)C(n2cncn2)C(O)=C1C1NCCc2ccccc21 (stereo not given),3,/,-6.3,4%,0,
CCC(=NCCN1CCOCC1)c1c(O)n(C2CCCCC2)c(=O)[nH]c1=O,/,/,2.2,-2%,-1,
CC1(C)OC(=O)C=C(CC2NS(=O)(=O)OC3CCCCC23)O1 (stereo not given),/,/,-5.9,/,0,
COc1ccc(S(=O)(=O)NN(C)c2ncc(C(F)(F)F)cc2Cl)cc1,11,/,-0.2,/,3,
CCN(CC)c1ccc(C=Nc2ccc(C)cc2C)c(O)c1,-3,/,-0.7,2%,31,

# (next part)
SMILES,Arbovirus anti,YopH inh,RecA intein inh,Mtb growth,Mtb bLac sens,others
Cc1cc(NC(=O)CN2C(=O)NC(Cc3ccccc3)C2=O)no1 (stereo not given),6,-24,0.5,-13%,-5,
COc1ccc(C(=O)NNS(=O)(=O)c2ccc(C)cc2)cc1,0,-15,-4.9,3%,16,
COc1ccc(NC(=O)CC2SC(=NCc3ccccc3OC)NC2=O)cc1 (stereo not given),2,-40,0.1,-4%,-3,
COc1ccc(C)cc1NC(=O)CNCc1cccs1,/,/,2.3,/,-2,
Cc1cccc(Cn2ncc(Cl)c(Cl)c2=O)c1,-33,-1,55*,11%,98,
Cc1noc(C)c1COC(=O)c1ccccc1NC(=O)c1ccco1,-2,/,-2.0,3%,3,
CC(C)OP(=O)(c1ccc(N(C)C)cc1)C(O)c1ccc(N(C)C)cc1 (stereo not given),/,/,-0.9,/,-9,
O=C(Nc1cccc(F)c1)C1CCCN(S(=O)(=O)c2cccc3cccnc23)C1 (stereo not given),/,/,-1.0,/,-1,
COc1cccc(-c2nc(CS(=O)(=O)CC(=O)NCCc3cc(OC)ccc3OC)c(C)o2)c1,/,/,0.7,/,4,
CCn1c(=O)cc(OCC(=O)N(C)C2CCCCC2)c2ccccc21,-4,-4,4.3,1%,?,
CC(=O)c1c(N2CCCCC2)nc(=S)n(-c2ccccc2)c1C,3,-42,2.8,-10%,-18,
O=C(CC12CC3CC(C1)CC(CC(=O)N1CCCC1)(C3)C2)N1CCCC1,7,-47,0.6,0%,-6,
CCCCNC(=S)NNC(=O)c1sccc1C,0,-30,-3.0,-10%,-4,
CCC(=O)c1cc(F)c(N2CCN(S(=O)(=O)c3ccc(C)cc3)CC2)cc1C,8,-14,6.9,5%,2,
O=C(C[n+]1ccccc1)N/N=C/c1ccccc1C(F)(F)F,/,/,-0.1,/,0,
CCc1ccccc1NC(=O)C1COc2ccccc2O1 (stereo not given),/,/,4.3,/,7,
COC(=O)c1ccc(C)c(NC(=O)CCc2ccc(OC)cc2)c1,0,-41,-0.1,-1%,-6,
Cc1sc2ncn(CC(=O)NCCCC(=O)N3CCC(C)CC3)c(=O)c2c1C,/,/,0.1,/,2,
CCNC(=O)C1=C(O)c2sccc2N(C)S1(=O)=O,8,/,1.8,-4%,2,
CC1(C)CC(=O)/C(=C(\O)CCCN2C(=O)c3ccccc3C2=O)C(=NCCO)C1,7,/,/,-4%,-4,

# Of the compounds above, 22 have an aryl methoxy group:
SMILES,Arbovirus anti,YopH inh,RecA intein inh,Mtb growth,Mtb bLac sens,others
COc1ccc(CNC(=O)CSc2nnnn2-c2ccc(O)cc2)cc1,-5,-2,2.2,1%,3,Arbovirus anti repeat=-5
COc1ccc(S(=O)(=O)N[C@@H](CSCc2ccccc2)C(=O)O)cc1,/,/,-0.4,/,-6,
COc1ccccc1C(=O)NC(=S)Nc1ccc2[nH]c(=O)[nH]c2c1,/,/,-1.6,/,-1,
COc1ccc(OC)c(NC(=O)Cn2c(-c3ccc(Cl)cc3)noc2=O)c1,6,1,-0.1,2%,13,
COc1ccc(Cc2nnc(NC(=O)c3ccccc3Cl)s2)cc1OC,/,/,0.7,/,-4,
C#CCSc1nnc(-c2ccc(OC)cc2)o1,-20,-12,-0.1,?,37,
C=CCN1C(=O)/C(=C/c2ccc(OC)cc2)S/C1=N/c1nccs1,0,-33,1.4,-4%,12,
COc1cc2nc(N(CCCN(C)C)C(=O)c3ccc(C(=O)c4ccccc4)cc3)sc2cc1OC,/,/,-1.6,/,-5,
COC(=O)c1ccc(NC(=O)C(=O)N2CCN(C(=S)Nc3cccc(OC)c3)CC2)cc1,1,-21,0.7,7%,-7,
COc1ccc(OC)c(S(=O)(=O)n2cnc3cc(C)c(C)cc32)c1,-4,-37,0.8,1%,14,
COc1ccc(C)cc1S(=O)(=O)N(CC(=O)Nc1cccc([N+](=O)[O-])c1)c1cc(C)cc(C)c1,-9,-14,-0.9,-2%,0,
COc1ccc(NC(=O)C(c2ccc(C)cc2)N(C)C(=O)Cc2cccs2)cc1 (stereo not given),-8,-13,2.7,6%,11,
COc1ccc(C)cc1S(=O)(=O)N(CC(=O)N1CCCC1)c1ccc(C)cc1,/,/,0.6,/,3,
CCCOC(=O)c1ccc(NC(=O)c2ccccc2OC)cc1,-3,/,1.9,60%,1,
COc1ccnc(Oc2ccc(C)cc2C)c1C#N,-1,-26,-0.2,7%,7,
COc1ccc(-c2cc(C(=O)Nc3cc(OC)c(OC)c(OC)c3)no2)cc1,/,/,6.7,/,10,
COc1ccc(S(=O)(=O)NN(C)c2ncc(C(F)(F)F)cc2Cl)cc1,11,/,-0.2,/,3,
COc1ccc(C(=O)NNS(=O)(=O)c2ccc(C)cc2)cc1,0,-15,-4.9,3%,16,
COc1ccc(NC(=O)CC2SC(=NCc3ccccc3OC)NC2=O)cc1 (stereo not given),2,-40,0.1,-4%,-3,
COc1ccc(C)cc1NC(=O)CNCc1cccs1,/,/,2.3,/,-2,
COc1cccc(-c2nc(CS(=O)(=O)CC(=O)NCCc3cc(OC)ccc3OC)c(C)o2)c1,/,/,0.7,/,4,
COC(=O)c1ccc(C)c(NC(=O)CCc2ccc(OC)cc2)c1,0,-41,-0.1,-1%,-6,
